Six1-Eya2 blk: blocks human Six1 binding to Eya2 | AlphaScreen GST-Six1/His-Eya2 binding, biochemical; hits give low values; control for the full effect not named in the record | activity change, % (no concentration beside the values) | hit rate 0.56% among 360,000; in the data active = activity change below about -65%; inconclusive = about -30% to -65%; inactive = above about -30%; also: % is scaled to controls: 0 for no effect and ±100 for the full control effect; compound concentration not given in the record
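Homogeneous AlphaScreen proximity assay pairing GST-Six1 with His-tagged Eya2 (added as 5X mix: 250 nM and 500 nM) in 50 mM Tris pH 8.0, 300 mM NaCl, 1 mM TCEP. Glutathione donor and nickel acceptor beads; 1 h, 37 °C, dark.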
D2 ag: human D2 receptor agonism in beta-arrestin assay; hit rate 0.084% among 360,000; activation, % (concentration not given with the values); AID 624465; DiscoveRx PathHunter D2 beta-arrestin, luminescence, 90 min; 100% = 57 uM dopamine signal; P14416; in the data active = activation above about 40%; inconclusive = about 15% to 40%; inactive = below about 15%; also: compound concentration not given in the record; the text of the record calls up to 30% inactive
Target sequence (P14416 whole entry, looked up): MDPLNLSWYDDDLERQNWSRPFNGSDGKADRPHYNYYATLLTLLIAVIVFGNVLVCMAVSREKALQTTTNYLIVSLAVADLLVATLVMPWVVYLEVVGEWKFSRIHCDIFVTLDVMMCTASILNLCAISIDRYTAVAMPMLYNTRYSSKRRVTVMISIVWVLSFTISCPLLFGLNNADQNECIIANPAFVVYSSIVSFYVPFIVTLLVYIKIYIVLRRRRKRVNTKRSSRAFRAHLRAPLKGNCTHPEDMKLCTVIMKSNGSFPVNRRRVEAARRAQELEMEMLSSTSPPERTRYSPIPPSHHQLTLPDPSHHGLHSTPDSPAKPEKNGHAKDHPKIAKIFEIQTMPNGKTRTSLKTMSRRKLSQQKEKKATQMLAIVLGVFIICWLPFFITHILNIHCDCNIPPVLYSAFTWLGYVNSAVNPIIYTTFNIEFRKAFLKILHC
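Agonist mode: compounds alone added to overnight-plated D2 PathHunter cells for 90 min at 37 C, with 57 uM final dopamine (EC100) defining full response. Beta-arrestin recruitment detected by chemiluminescent reagent, read after 1 h at ambient temperature.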
TRPML1 inh: blocks the human TRPML1 channel; Q9GZU1; TRPML1-inducible cells, Ca2+ dye fluorescence, FDSS; hits give low values; inhibition of EC80 agonist-evoked calcium signal; activity change, negative = inhibition, % (no concentration beside the values); hit rate 0.02% among 390,000; AID 624415; in the data active means activity change below about -50%; inconclusive means about -30% to -50%; inactive means above about -30%;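 also: stimulus is agonist 54-4 at its EC80 concentration; % is scaled to controls: 0 for no effect and ±100 for the full control effect; compound concentration not given in the record; the text of the record puts the active cut at -80%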
Target sequence (Q9GZU1 whole entry, looked up): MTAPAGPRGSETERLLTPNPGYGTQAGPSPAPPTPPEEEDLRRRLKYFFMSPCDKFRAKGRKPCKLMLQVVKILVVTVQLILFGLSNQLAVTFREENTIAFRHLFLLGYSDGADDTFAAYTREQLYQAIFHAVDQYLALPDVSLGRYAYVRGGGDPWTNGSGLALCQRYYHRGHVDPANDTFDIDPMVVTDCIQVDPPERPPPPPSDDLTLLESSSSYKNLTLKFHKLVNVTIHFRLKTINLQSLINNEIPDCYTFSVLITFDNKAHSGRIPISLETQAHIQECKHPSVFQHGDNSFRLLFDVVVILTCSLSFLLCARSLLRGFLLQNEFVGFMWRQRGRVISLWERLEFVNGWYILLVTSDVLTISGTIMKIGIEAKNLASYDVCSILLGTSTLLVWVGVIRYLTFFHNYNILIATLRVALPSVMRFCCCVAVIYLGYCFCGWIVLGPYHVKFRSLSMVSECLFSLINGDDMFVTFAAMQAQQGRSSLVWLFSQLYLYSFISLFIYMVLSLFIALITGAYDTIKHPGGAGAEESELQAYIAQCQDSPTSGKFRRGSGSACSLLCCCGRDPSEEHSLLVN
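Calcium fluorescence in TRPML1-DL cells induced overnight with Tet: a 110 s read after compound pin addition, then a 110 s antagonist read after challenge with 54-4 at 4 uM final (EC80).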
D2 PAM: positive allosteric modulators of human D2 dopamine receptor; DiscoveRx D2 beta-arrestin cells, luminescence, 90 min; 100% = 57 uM dopamine signal; potentiation, % (concentration not given with the values); hit rate 0.23% among 360,000; active = potentiation of 50% or more; inconclusive = 30% to 50%; inactive = 30% or less;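 also: compound concentration not given in the record; tested on top of an EC20 dose of dopamine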
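PathHunter beta-arrestin assay in DiscoveRx D2 cells. Compounds were added with an EC20 of dopamine (50 nM final) for 90 min at 37 deg C. Luminescence was read 1 h after detection reagent, with 57 uM dopamine as the EC100 control.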
PINK1 modulator: modulators of PINK1 expression | AID 624263 | Potency, µM (series often up to 76.6 µM), for the others: top-dose activation (PINK1 increase), actives largely listed as activators | hit rate 0.2% among 410,000 | PINK1 immunofluorescence, high-content cytometry, 24 h; active = well fitted activation curve with a large enough effect; inconclusive = small, poorly fitted or top-dose-only effect; inactive = flat fitted curve, though single readings scatter; cell line not stated here;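 also: potency is read from the fitted curve at half-maximal effect; % of control where 0% means no effect; nearly all actives have a fitted effect of over 65% in size; a mitochondrial uncoupler was the plate control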
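Compound titrations (5 concentrations, 24 h) on a stable cell line; DMSO and CCCP controls. Endpoint: fixed-cell PINK1 immunofluorescence with mitochondrial, cell and nuclear markers, scanned by microplate cytometer.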
TRPML1 agonist: human mucolipin-1 channel agonism; AID 624414; hit rate 0.12% among 410,000; activation, % (concentration not given with the values); TRPML1-expressing cells, Ca2+ dye fluorescence, FDSS; host cell line not named in the record; reference of the full effect not given here; in the data active = activation above about 50%; inconclusive = about 30% to 50%; inactive = below about 30%; also: 0% is about no effect; the text of the record puts the active cut at 80%
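In this qHTS format, compounds were pin-transferred onto Ca8-dye-loaded TRPML1-DL cells induced with Tet overnight, and intracellular Ca2+ fluorescence was recorded kinetically for 110 s after a 10 s baseline. A subsequent 4uM final 54-4 (EC80) addition followed by a second 110 s read served as the antagonist phase.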
* marks the source's active call; other numbers are inactive results; u = inconclusive; x = not tested or not shown; [ ] = another dose, or the depositor's remark.

Each structure is followed by: Six1-Eya2 blk, D2 ag, TRPML1 inh, D2 PAM, PINK1 modulator, TRPML1 agonist
- COc1ccc([C@H]2CC(=O)C=C(/C=C/Cc3ccccc3)C2)cc1
→ 1.9, -5.2, 21.1, -14.1, u, 1.0
- COc1ccc(OC)c(-c2csc(NC(=O)Cc3ccccc3OC)n2)c1
→ -14.6, -2.2, 24.9, 6.1, -3.2%, 1.9
- O=C(Nc1cccc(S(=O)(=O)N2CCCC2)c1)[C@@H]1O[C@H](CO)[C@@H](O)[C@H]1O
→ 11.1, 1.6, 0.6, -3.9, 1.5%, 0.4
- Cc1ccc(C(=O)NCC(=O)N2CCCCCCC2)cc1
→ 4.1, -0.9, -11.8, 4.6, 2.7%, -0.4
- CNC(=S)N1C2CCCC1CC(NC(=O)c1ccc(C)cc1)C2 (stereo not given)
→ 13.1, -4.0, -4.8, -26.9, -1.5%, -0.7
- C=Cn1cc[n+](CC(=O)c2ccc(C)cc2)c1
→ 6.1, 1.9, -22.3, 2.0, 0.5%, -0.5
- Cc1cc(C)cc(N(CCC#N)C(=O)COC(=O)CNC(=O)c2sc3ccccc3c2Cl)c1
→ 1.0, -1.7, -20.3, -15.9, 0.8%, 0.0
- CCOC(=O)C1=CCN(S(=O)(=O)c2cccc(Cl)c2)C1c1ccc(C)cc1 (stereo not given)
→ 10.1, -1.6, 8.3, 0.3, 2.0%, 2.4
- N#C/C(=C\c1ccc(N2CCOCC2)o1)C(=O)NC1CCCCC1
→ -14.9, -5.7, -5.0, -13.2, 8.1%, 26.2
- Nc1nnc(SCC(=O)Nc2nnc(-c3ccccc3)o2)s1
→ -28.1, -4.6, -0.6, -12.0, -0.2%, -0.7
- CC1=C(Sc2nc3ccccc3[nH]2)C(=O)NC(C)(C)C1
→ 5.2, -3.3, -7.7, -9.9, -0.1%, 0.7
- COc1cc(C(=O)Nn2cnnc2)ccc1OC(F)F
→ 5.5, -0.1, 15.5, -4.4, -1.2%, 0.9
- O=C(N1CCOCC1)N1c2ccccc2CC(N2CCOCC2)c2ccccc21 (stereo not given)
→ 9.5, -2.8, -0.3, 4.8, 1.8%, -0.8
- CCN(CC)C(=O)CSc1nnc(SCc2ccc(Cl)cc2)s1
→ 3.1, -1.4, 27.2, -10.9, 0.0%, 3.8
- COc1ccc(-n2nc(C(=O)NCC(=O)NCCCN3CCC(C)CC3)c3ccccc3c2=O)cc1Cl
→ -0.3, -2.7, 7.7, -13.9, -1.7%, -0.6
- CC/C(=N\NC(=O)c1cccnc1)c1ccc2c(c1)OCCO2
→ 2.0, -0.9, -3.3, 0.5, 0.0%, -0.4
- O=C(COC(=O)c1cccc(S(=O)(=O)Nc2ccc(F)cc2)c1)NCCN1C(=O)CSC1=O
→ 2.5, -1.6, 1.4, 2.3, -1.4%, 0.0
- CN(C(=O)c1ccc(NC(=O)Cc2ccc(NC(=O)C3CCN(C(=O)C4CCCC4)CC3)cc2)cc1)C1CCCC1
→ -0.4, -1.4, -0.2, 0.0, 4.6%, -1.0
- O=C(CCc1nnc2n(Cc3ccc(Cl)cc3)c(=O)c3ccccc3n12)NCCN1CCCC1
→ -1.7, -2.0, 1.1, -6.1, -1.2%, -0.1
- Cc1ccc(S(=O)(=O)Nc2ccc(S(=O)(=O)Nc3cc(C)nc(C)n3)cc2)cc1
→ 19.3, -3.0, 13.8, -2.8, 1.4%, 2.4
- CN1CCN(c2ccc(NC(=O)c3cc(S(N)(=O)=O)ccc3N3CCOCC3)cc2)CC1
→ 4.0, -2.5, -1.4, -8.1, -1.4%, 0.2
- O=C(Nc1cc(S(=O)(=O)N2CCOCC2)ccc1N1CCCC1)c1cnccn1
→ 0.0, 0.9, 3.1, 2.5, -0.4%, 1.1
- C/C(CC(=O)Nc1ccccn1)=N\NC(=O)c1ccccc1O
→ -19.0, -6.4, -5.4, -13.3, 4.4%, 1.1
- Cc1ccc(S(=O)(=O)N2CCC(C(=O)C3C(=O)CCCC3=O)CC2)cc1
→ 7.6, 1.5, -3.8, -3.3, -0.2%, -0.7
- COc1ccc(NC(=O)c2cc3c(=O)n(Cc4ccco4)ccc3nc2C)c(OC)c1
→ x, x, -19.1, x, 0.6%, 1.2
- Cc1cc(OCC(F)(F)C(F)(F)C(F)(F)C(F)F)nc(N)n1
→ -0.7, -2.1, -0.1, -11.9, -1.2%, 0.3
- COC(=O)c1ccc(OCC2NCCc3cc(OC)c(OC)cc32)cc1 (stereo not given)
→ 0.0, -1.6, 1.6, -11.8, 0.6%, 0.5
- CCOc1ccccc1CN1CCC(Oc2cccc(C(=O)NCCOC)c2)CC1
→ 12.8, 1.8, -4.7, -15.7, -0.5%, -0.4
- Clc1ccc(-n2c(Cc3ccccc3)nnc2SCc2nc(-c3cccs3)no2)cc1
→ x, x, -5.1, x, -0.3%, 1.1
- CN(c1ccccc1)S(=O)(=O)c1cccc(Cl)c1Cl
→ 23.4, -0.8, 33.3, -9.1, 3.3%, 1.6
- O=C1c2ccccc2C(=O)N1CCCCN(C(=O)c1ccc([N+](=O)[O-])cc1)c1ccc(Cl)cc1
→ -17.8, -3.3, 5.8, 0.3, 0.4%, 1.3
- COc1ccc(NC(=S)Nc2ccc(OCc3ccccc3)cc2)c(OC)c1
→ -19.3, -1.9, 8.1, -23.1, -1.5%, 1.0
- O=C(Nc1nnc(C2=COCCO2)o1)c1cccc(Br)c1
→ -25.5, -1.4, -11.0, -15.9, 1.0%, 0.0
- O=C1NC(c2ccccc2O)Nc2ccccc21 (stereo not given)
→ 11.0, -2.7, x, -7.6, 0.8%, x
- CC1CCCCC12NC(=O)N(CC(=O)OCc1ccccc1F)C2=O (stereo not given)
→ 1.6, -0.3, -0.8, -11.2, 3.0%, 1.4
- c1ccc(-c2onc3c2CCCC3)cc1
→ 21.3, -1.5, 16.0, -9.0, -1.1%, -1.0
- CCN(CC)CCN1C(=O)C(=O)/C(=C(/O)c2ccc(S(=O)(=O)N3CCOCC3)cc2)C1c1ccccc1 (stereo not given)
→ -0.3, 0.9, 1.5, -6.0, -1.0%, 0.6
- CCCOc1ccccc1C1Oc2nc(SC)nnc2-c2ccccc2N1C(C)=O (stereo not given)
→ x, x, -20.6, x, -0.4%, 1.0
- CC1=C(C(N)=O)C(c2cccc(F)c2)n2nc(SCc3ccccc3)nc2N1 (stereo not given)
→ x, x, -1.8, x, 0.0%, 0.1
- C(CCN1CCOCC1)CN1CCOCC1
→ 12.8, 4.1, x, -6.8, 0.0%, -0.1
- Cc1cc(=O)[nH]c(SCC(=O)N2CCc3ccccc3C2)n1
→ 1.5, -1.4, 2.6, -6.6, 8.2%[38.3 µM], -0.3
- COc1ccc(OC)c(S(=O)(=O)NCCS(=O)(=O)N2CCN(c3ccccc3F)CC2)c1
→ x, x, -7.8, x, 0.1%, 3.2
- CCCCNC(=O)c1onc(CSc2ccncc2)c1C(=O)NCCCC
→ -0.7, -3.1, -0.8, -2.6, 0.7%, -1.5
- CC(C(=O)Nc1cc(Cl)cc(Cl)c1)N1CCCC1 (stereo not given)
→ -2.0, -0.9, 30.2, -12.3, -0.3%, 1.1
- COc1ccc(C(C(=O)NC(C)(C)C)N(Cc2ccco2)C(=O)CCC(=O)Nc2cc(C)on2)cc1 (stereo not given)
→ -1.0, -0.9, 4.8, -23.2, -1.9%, 0.7
- COC(=O)Cn1c(CN2CCN(c3ccc(F)cc3)CC2)nc2c1c(=O)n(C)c(=O)n2C
→ 8.5, -2.2, -5.7, -7.3, -1.9%, 0.0
- Cc1ccccc1Cn1cccc1/C=C1/C(=N)N2C=CSC2=NC1=O
→ -21.5, -6.8, -1.3, -12.7, 13.6%, 1.0
- CC1=Nc2ccccc2N=C(NC(=O)CN2CCN(c3ccc(F)cc3)CC2)C1c1ccccc1 (stereo not given)
→ -13.5, -0.9, 11.8, -6.6, 2.1%, 1.9
- O=C1CCc2cc(S(=O)(=O)N3CCN(Cc4ccc5c(c4)OCO5)CC3)ccc2N1
→ -3.2, 13.9, -20.6, 3.2, -0.5%[38.3 µM], 0.3
- CN(C)CCN(C(=O)c1ccc(S(=O)(=O)N(C)c2ccccc2)cc1)c1nc2cc3c(cc2s1)OCCO3
→ -12.6, -2.9, -0.2, -7.6, -1.4%, -0.5

The listing continues:
Each structure is followed by: Six1-Eya2 blk, D2 ag, TRPML1 inh, D2 PAM, PINK1 modulator, TRPML1 agonist
- COc1ccc(C2SCC(C(=O)NCc3ccc(F)cc3)N2C(C)=O)cc1 (stereo not given)
→ -2.2, -4.3, 15.7, -8.6, 2.6%, -0.1
- Cc1cc(C)c(C)c(S(=O)(=O)N2CCN(C(=O)CNC(=O)c3ccco3)CC2)c1C
→ 1.2, 8.8, -12.9, -0.3, -0.9%, -0.8
- CCOC(=O)c1[nH]c2ccccc2c1NC(=O)c1ccc(C)c(C)c1
→ x, x, 2.0, x, 8.1%, -0.3
- CN(C(=O)CSc1nnnn1-c1ccc(Cl)cc1)C1CCS(=O)(=O)C1 (stereo not given)
→ -3.3, -1.3, -7.4, -3.5, 0.8%, -0.4
- COc1ccc(S(=O)(=O)N(C)[C@H]2C[C@H]3c4cc(Oc5ccccc5C)ccc4CCN3C(=O)[C@H]2[C@H](C)O)cc1
→ -8.9, -3.2, -3.6, -1.2, 2.1%, 0.3
- CC(=O)NCCCc1c[nH]c2ccc(Cl)cc12
→ -1.2, 1.6, -9.3, 3.3, 1.3%, 0.6
- O=C(Nc1ccccc1[N+](=O)[O-])c1nc[nH]c1C(=O)NCCO
→ u, -0.9, -11.1, -5.6, -2.6%, 1.9
- COc1ccc(-c2nc(Cn3c(SCc4ccc(F)cc4)nc4ccncc43)c(C)o2)cc1OC
→ -9.9, -0.8, -2.2, -6.7, -0.5%, 0.0
- COc1ccccc1S(=O)(=O)N(C)C[C@@H]1OCc2cn(nn2)CCCC(=O)N([C@@H](C)CO)C[C@H]1C
→ 4.5, -7.4, 5.7, -2.4, 4.1%, 0.3
- CCn1c(O)c(/C=N/NC(=O)c2ccncc2)c(=O)n(CC)c1=S
→ -2.4, 10.8, -2.0, -4.9, 1.0%, 1.2
- Cc1cc(=O)c2cc(Cl)ccc2[nH]1
→ 9.0, -1.4, -1.0, -11.7, 0.0%, 2.7
- CCCc1c(C)nc2ccccc2c1SCCC#N
→ -1.5, 5.1, 4.5, -5.3, 1.9%, 0.8
- CC(C)(C)NCC(=Cc1ccccc1)C(=O)c1ccccc1
→ 5.1, -6.8, -8.7, -13.9, -3.6%, -0.4
- Clc1ccc(CN2CCSCC2)c(Cl)c1
→ 6.9, 1.7, 39.7, -7.7, 1.0%, 0.7

Compound activity: PubChem BioAssay, National Center for Advancing Translational Sciences (NCATS)
